Bioassay records as filed in PubChem.
PINK1 modulator: A Quantitative High throughput Screen to Identify Chemical Modulators of PINK1 Expression; PINK1 immunofluorescence, high-content cytometry, 24 h; Potency, µM (top dose mostly 76.6 µM), without a hit: top-dose activation (PINK1 increase), hits mostly activators; 410,000 tested, 0.2% active; active = well fitted activation curve with a large enough effect; inconclusive = small, poorly fitted or top-dose-only effect; inactive = flat fitted curve, though single readings scatter; cell line not stated here;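 note: potency is the fitted concentration of half-maximal effect; % of control where 0% means no effect; nearly all actives have a fitted effect of over 65% in size; a mitochondrial uncoupler was the plate control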
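Cells are seeded, rested 12 hours, then given compound at five concentrations or DMSO for 24 hours. After fixation, blocking and antibody staining, PINK1 amount and mitochondrial localization are scored; CCCP serves as control.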
Menin MLL FP FL: qHTS Assay for Inhibitors Targeting the Menin-MLL Interaction in MLL Related Leukemias: Competition With Fluorescein Labeled MLL-derived Peptide; Fluorescence polarization, fluorescein-MLL peptide displacement from menin; FP activity change, % at 61.4 µM; 290,000 tested, under 10 active; AID 1766, 2009; inconclusive = falling polarisation curve, or a change in total fluorescence; inactive = total fluorescence flat and polarisation flat or rising; no compound was filed as active; the % refers to the polarisation; negative = inhibition;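 note: % of control where 0% means no effect; inhibitors lower the polarisation; unlabelled MLL peptide was the positive control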
gsp agonist: qHTS for Agonist of gsp, the Etiologic Mutation Responsible for Fibrous Dysplasia/McCune-Albright Syndrome: qHTS; gsp mutant cells, cAMP HTRF, 30 min; control for the full effect not named in the record; Potency, µM (top dose mostly 76.9 µM), for inactives: at the highest dose activation (cAMP increase), usual class: activators; 340,000 tested, 0.13% active; AID 624287, 2012; active = well fitted activation curve with a large enough effect; inconclusive = small, poorly fitted or top-dose-only effect, or another doubt; inactive = no such curve, though single readings can be large or run the other way; cell line not stated here;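 note: phosphodiesterase inhibitor Ro 20-1724 added with compounds to block cAMP breakdown; potency is the fitted concentration of half-maximal effect; nearly all actives have a fitted effect of over 60% in size; about a fifth of the inactives were tested at one dose only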
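Cells stably selected in G418 were plated at 2000/well, grown 16-24 hr, then given compounds in DMSO with the PDE inhibitor […] (300 uM solution added) for 30 min at 37C; cAMP was read by HTRF.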
D2 agonist: Beta-Arrestin HTS for Positive Allosteric Modulators of the Human D2 Dopamine Receptor: Agonists; D(2) dopamine receptor (Homo sapiens), P14416; DiscoveRx PathHunter D2 beta-arrestin, luminescence, 90 min; 100% = 57 uM dopamine signal; 360,000 tested, 0.084% active; activation, % (concentration not given with the values); in the data active = activation above about 40%; inconclusive = about 15% to 40%; inactive = below about 15%; note: compound concentration not given in the record; the text of the record calls up to 30% inactive
Target sequence (P14416 whole entry, looked up): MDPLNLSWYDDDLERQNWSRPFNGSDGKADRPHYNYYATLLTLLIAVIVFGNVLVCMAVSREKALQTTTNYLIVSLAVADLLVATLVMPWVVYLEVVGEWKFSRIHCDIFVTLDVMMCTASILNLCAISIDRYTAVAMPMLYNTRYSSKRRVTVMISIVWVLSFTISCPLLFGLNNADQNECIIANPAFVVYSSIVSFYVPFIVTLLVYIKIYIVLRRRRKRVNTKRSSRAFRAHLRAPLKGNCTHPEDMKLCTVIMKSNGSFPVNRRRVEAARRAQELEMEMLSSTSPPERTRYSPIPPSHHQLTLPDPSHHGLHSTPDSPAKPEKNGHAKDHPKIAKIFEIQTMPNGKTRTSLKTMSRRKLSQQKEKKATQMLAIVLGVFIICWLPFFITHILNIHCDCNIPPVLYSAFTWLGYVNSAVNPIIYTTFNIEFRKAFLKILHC
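DiscoveRx PathHunter D2 beta-arrestin cells (2,100/well) attached overnight, then compound-stimulated 90 min at 37 C in HBSS/10 mM HEPES/0.1% Tween-20 buffer; beta-galactosidase complementation read by luminescence after 1 h at ambient temperature. Dopamine 57 uM final (EC100) as control.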
gsp antag: qHTS for Antagonists of gsp, the Etiologic Mutation Responsible for Fibrous Dysplasia/McCune-Albright Syndrome: qHTS. gsp-mutant cells, cAMP HTRF, 30 min; control for the full effect not named in the record. Potency, µM (doses to about 76.9 µM), without a hit: top-dose activity change, negative = inhibition, hits mostly inhibitors. 340,000 tested, 0.4% active. AID 624288, 2012; active = falling curve of any shape with a large fitted effect; inconclusive = falling curve, mostly with a smaller effect; inactive = flat or rising curve; cell line not stated here;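 note: intracellular cAMP measured with PDE inhibitor Ro 20-1724 present during compound exposure; potency is the fitted concentration of half-maximal effect; % is set by controls: 0 for no effect and ±100 for the full control effect; nearly all actives have a fitted effect of over 65% in size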
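HTRF cAMP read-out (cAMP-d2 plus anti-cAMP antibody-K in lysis buffer, 30 min RT). Before lysis, cells are exposed to compounds with […] for 30 min at 37C in DPBS containing Ca/Mg, BSA and Tween 20.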
Sfp inh: qHTS Assay for Inhibitors of Bacillus subtilis Sfp phosphopantetheinyl transferase (PPTase). 310,000 tested, 3.5% active. Biochemical Sfp PPTase activity, qHTS. Potency, µM, for the others: max response, negative = inhibition, most hits filed as inhibitors. 4'-phosphopantetheinyl transferase ffp (Bacillus subtilis), Q9F4F7; active = well fitted inhibition curve with a large enough effect; inconclusive = small, poorly fitted or top-dose-only effect, or another doubt; inactive = no such curve, though single readings can be large or run the other way;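 note: the enzyme is Sfp with the accession as filed and its product quenches rhodamine fluorescence; potency is the fitted concentration of half-maximal effect; 0% = enzyme reaction without inhibitor and -100% = no enzyme wells; top concentration of the series not given in the record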
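Buffer: 50 mM Hepes-Na pH 7.6, 10 mM MgCl2, 0.01% Nonidet P-40, 0.01% BSA. Enzyme 15 nM, pre-exposed to compound 15 min; substrates then added and fluorescence change tracked over 30 min.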
ClpP mod: qHTS Assay for Activators of ClpP. ATP-dependent Clp protease proteolytic subunit (Bacillus subtilis (strain 168)), P80244. purified B. subtilis ClpP, FRET peptide cleavage, 20 min. Potency, µM (highest dose often 57.5 µM), for the others: at the top dose activity change, negative = active. 340,000 tested, 1.9% active; active = well fitted falling curve with a large enough effect; inconclusive = small, poorly fitted or top-dose-only effect; inactive = no such curve, though single readings can be large or run the other way; note: potency is the fitted concentration of half-maximal effect; the source files actives as falling curves though it sought activators and does not explain the sign; nearly all actives have a fitted effect of over 65% in size; many hits overshoot -100%
Target sequence (P80244 whole entry, looked up): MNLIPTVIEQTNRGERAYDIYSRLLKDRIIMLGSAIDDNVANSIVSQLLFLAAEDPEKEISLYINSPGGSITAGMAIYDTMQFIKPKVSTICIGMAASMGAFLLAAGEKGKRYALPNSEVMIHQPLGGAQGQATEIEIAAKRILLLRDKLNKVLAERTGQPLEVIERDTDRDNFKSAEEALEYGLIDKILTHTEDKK
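Purified B. subtilis ClpP, 10 microg/mL final in Tris/HCl pH8 with KCl, BSA, glycerol and Tween-20, cleaved an Abz/nitrotyrosine-quenched decapeptide. Fluorescence (ex 320, em 430) was read at 0 and 20 min at room temperature. Delta was normalized to 5.8 microM ADEP and DMSO/no-enzyme controls.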
The depositor's hits bear a star; u = inconclusive; x = no result given; [ ] = remark or other dose. Rows were taken by chance; 5.1% or so of the library scored in one or more.

Results follow in this order: PINK1 modulator, Menin MLL FP FL, gsp agonist, D2 agonist, gsp antag, Sfp inh, ClpP mod
1: CC(=O)c1ccc(NC(=O)C[n+]2cccc(C)c2)cc1
  -0.5%, -0.3, 1%, -2.4, 9%, 11%, 0.1%
2: Cc1cc(C)cc(C(=O)N2CC(C)SC2=Nc2cccc(S(=O)(=O)N(C)C)c2)c1 (stereo unspecified)
  -1.7%, -2.4, 2%[15.4 µM], -3.8, -7%, -2%, -1.4%
3: O=C1S/C(=C\C=C\c2ccco2)C(=O)N1c1ccc(O)cc1
  3.0%, u, 18%, 9.7, u, u, 2.7%
4: CCc1ccc(CC)c(S(=O)(=O)Nc2ccc(O)c(C(=O)O)c2)c1
  4.3%[38.3 µM], -0.4, -4%, -0.5, -9%, 9%, -18%
5: Cc1cc(Cl)ccc1OCC(=O)N/N=C1\CCCc2ccccc21
  u, 5.5, -2%, 3.4, -14%, 0%, -16%
6: COc1cc(NC(=O)C2CC(=O)N(CCc3ccccc3)C2)cc(OC)c1 (stereo unspecified)
  1.7%, x, -7%[15.4 µM], -1.8, -4%, x, x
7: CC(C)(C)c1ccccc1OCC(O)CN1CCN(c2ccccn2)CC1 (stereo unspecified)
  5.3%, -0.1, -8%, 1.1, 2%, -15%, -0.2%
8: COc1ccc(F)cc1-c1cc(C(=O)N2CCc3ccccc3C2)[nH]n1
  -0.9%, x, x, -4.9, x, x, 0.0%
9: CCOC(=O)N1CCC(C(=O)NNC(=O)c2ccc(Cl)cc2Cl)CC1
  0.4%, x, -3%, -1.7, 17%, 10%, -2.1%
10: CCOC(=O)CC(=O)CSc1nc2c(cc1C#N)CCCCC2
  0.8%, 10.0, 16%, 0.2, -17%, u, 205%
11: COc1ccc(NC(=O)Cc2ccccc2F)cn1
  0.8%, -3.7, -11%[15.4 µM], -2.3, 2%, 12%, -2.2%
12: COc1nnc(-c2ccc(N3CCOCC3)c(NC(=O)c3ccco3)c2)c2ccccc12
  4.7%, 2.5, -11%, -3.1, 0%, 12%, -5.6%
13: COc1cc(C=NCC2OCCc3ccccc32)cc(OC)c1 (stereo unspecified)
  8.1%, 3.5, -2%, 5.5, 6%, 20%, -18%
14: CCc1cnccc1CCC(=O)Nc1ccccc1C
  0.6%, x, -36%[inhibitor], 4.8, 3%, x, -1.6%
15: Cc1ccc(NC(=O)[C@@H]2CCCN2S(=O)(=O)c2ccccc2F)cc1
  1.4%, 1.2, 4%[15.4 µM], -1.5, 0%, 11%, x
16: O=C(NC1CCCC1)C(c1cccnc1)N(C(=O)c1csnn1)c1ccccc1Cl (stereo unspecified)
  6.1%, 4.5, -3%[15.4 µM], -3.9, 8%, 7%, 1.8%
17: COCCNC(=O)c1ccc2c3n(nc2c1)-c1ccc(C)cc1CO3
  -0.9%, 0.7, x, -0.3, -9%, -7%, 3.9%
18: CCc1nc2cccnc2n1-c1ccc(CC(=O)NC(C)CC)cc1 (stereo unspecified)
  -2.1%, 0.0, 40%, -4.4, 5%, 12%, -3.4%
19: O=[N+]([O-])c1cccc(S(=O)(=O)N2CCCCC2)c1
  0.7%, 3.1, -11%, 13, 1%, 19%, 1.5%
20: O=C(CSCC(=O)NN=Cc1ccccc1)NN=Cc1ccccc1
  -2.3%, x, 1%, -3.9, -2%, x, x
21: Cc1ccc(C2C3=C(CC(C)(C)CC3=O)Nc3onc(C)c32)cc1 (stereo unspecified)
  -0.7%, 5.8, 1%, 3.1, -1%, 7%, 32µM*
22: CC(=O)N1CCN(CCN=CC2=C(O)CC(c3ccc(Cl)cc3)CC2=O)CC1 (stereo unspecified)
  0.4%, 0.1, 1%[15.4 µM], -6.1, -4%, 6%, 2.2%
23: Oc1[nH]c2ccccc2c1N=Nc1c(F)c(F)c(C(F)(F)F)c(F)c1F
  2.0%, -4.1, 4%, 4.1, 9%, 9%, x
24: CCc1ccc(Nc2cc(C(=O)NCCCN3CCOCC3)c3ccccc3n2)cc1
  2.7%, 2.3, 12%, -8.0, 0%, 35µM*, 2.5%
25: CC(CCc1ccccc1)N(C)CC(O)c1cccc([N+](=O)[O-])c1 (stereo unspecified)
  7.6%, 1.2, 7%[15.4 µM], -5.6, 16%, 8%, x
26: CSc1nc(-c2ccco2)nn1C(=O)c1cccs1
  9.0%, 5.3, -17%[15.4 µM], -7.7, -7%, u, -1.8%
27: CCCc1nc2ccc(NC(=O)c3cccs3)cc2c(=O)n1Cc1ccccc1Cl
  3.4%, 4.9, -46%[inhibitor], -0.1, -7%, -1%, -2.6%
28: CC(=O)Nc1ccccc1C
  -0.4%, x, x, -3.8, -5%, x, -0.9%
29: O=C(CSc1nnc(NC(=O)c2ccco2)s1)Nc1ccc(F)cc1F
  18%, x, 7%, -3.4, -10%, 11%, -3.5%
30: COc1cccc(CN2CCN(Cc3nc(C(C)C)cs3)CC2CCO)c1 (stereo unspecified)
  2.2%, 0.1, 0%[15.4 µM], -3.3, 2%, 8%, x

Going on with the list:
Results follow in this order: PINK1 modulator, Menin MLL FP FL, gsp agonist, D2 agonist, gsp antag, Sfp inh, ClpP mod
31: CC(c1ccccc1)C1CC(=O)N(c2ccc([N+](=O)[O-])cc2)C1=O (stereo unspecified)
  -0.1%, 1.9, 5%, -0.7, 2%, 20%, -0.4%
32: COc1ccccc1C(CNC(=O)c1cccc(NS(=O)(=O)c2ccc(C)c(F)c2)c1)N1CCCC1 (stereo unspecified)
  0.5%, x, -12%, 1.3, 9%, x, -2.4%
33: Cc1cc(=O)n2nc(N3CCCC(C(=O)NCCc4ccccc4)C3)sc2n1 (stereo unspecified)
  -0.3%, -1.0, 35%, -0.6, -5%, 12%, -0.8%
34: O=C(COC(=O)CNC(=O)c1ccc(-c2ccccc2)cc1)NCc1ccco1
  2.2%, 6.9, 1%[15.4 µM], -4.0, 6%, -23%, -25%
35: Cc1cc(C)cc(C(=O)Nc2c3c(nn2C(C)(C)C)CS(=O)(=O)C3)c1
  -0.2%, -6.4, 30%, -3.0, -9%, 12%, -1.5%
36: CCOC(=O)/C(C#N)=C/c1c(N2CCN(c3ccccc3)CC2)nc2c(C)cccn2c1=O
  -2.0%, 4.2, -11%, -20, -27%, 4%, -0.2%
37: CCOC(=O)C1CCCN(C(=O)c2cc(Nc3ccc(OC)c(OC)c3)nc3ccccc23)C1 (stereo unspecified)
  1.7%, 1.8, -4%[15.4 µM], 0.1, u, 3%, 0.4%
38: Cc1ccc2oc(=O)c3cnn(CC(=O)N4CCCCC4C)c3c2c1 (stereo unspecified)
  -0.5%, 2.9, 28%, -7.2, -5%, 9%, -2.5%
39: CC(C)c1cccc(OCCCCN(C)C)c1
  -0.2%, -0.2, -3%, 2.7, 6%, 79µM*, x
40: CC1(Cc2cc(Cl)ccc2C(F)(F)F)C(=O)Nc2cc(C(F)(F)F)ccc21 (stereo unspecified)
  4.3%, x, x, -4.4, x, x, 0.6%
41: O=C(CCC(=O)N1CCCC1)Nc1nnc(C(F)(F)F)s1
  -6.1%[38.3 µM], 1.5, -22%, 2.2, -4%, 5%, -2.1%
42: CCOC(=O)N1CCN(C(=O)CSc2nc3c(cnn3-c3ccc(C)cc3)c(=O)[nH]2)CC1
  1.1%, -1.5, u, -2.2, -13%, 6%, 1.0%
43: O=c1c2ccccc2nnn1Cc1ccccn1
  3.2%[38.3 µM], -0.1, -35%[inhibitor], -2.4, 12%, 5%, -4.2%
44: O=C(NCCNc1ccc([N+](=O)[O-])cc1)c1ccccc1F
  4.4%, 1.9, 2%, 0.3, -3%, 9%, 0.4%
45: CCN(CCCCCCN)c1ccc2c(=O)[nH][nH]c(=O)c2c1
  0.8%, -2.2, -7%[15.4 µM], -3.7, -11%, 12%, x
46: COc1ccc(N(C(=O)c2snc(C(N)=O)c2N)C(C(=O)NC2CCCC2)c2ccco2)cc1OC (stereo unspecified)
  3.7%, -2.9, 30%, 2.2, -2%, -9%, x
47: CCOc1ccc(CCNC(=O)CCNC(=O)c2ccc(Br)cc2)cc1OCC
  2.5%, x, 8%, 0.8, 0%, 9%, -2.0%
48: CC(=O)N[C@@H](Cc1c[nH]c2ccccc12)C(=O)NCc1ccccc1
  0.9%, -1.2, 4%, -3.0, 9%, -11%, x
49: CC1Sc2ccc(C(=O)NCc3cccc(C(F)(F)F)c3)cc2NC1=O (stereo unspecified)
  5.8%, x, 4%, 0.3, 8%, x, 0.2%
50: COc1ccc2oc(C(=O)N(C)Cc3ccc(OC(F)F)cc3)c(C)c2c1
  -1.7%, x, 23%, -1.1, 1%, -5%, -8.7%
51: N#CC1(NC(=O)COC(=O)c2nc(Cl)c(Cl)c(N)c2Cl)CCCCC1
  -0.5%, x, 12%[15.4 µM], 5.9, 0%, x, -3.0%

One compound at a time (already shown).
CC(c1ccccc1)C1CC(=O)N(c2ccc([N+](=O)[O-])cc2)C1=O (stereo unspecified) as listed: PINK1 modulator: -0.1%; Menin MLL FP FL: 1.9; gsp agonist: 5%; D2 agonist: -0.7; gsp antag: 2%; Sfp inh: 20%; ClpP mod: -0.4%
CCN(CCCCCCN)c1ccc2c(=O)[nH][nH]c(=O)c2c1 as listed: PINK1 modulator: 0.8%; Menin MLL FP FL: -2.2; gsp agonist: -7%[15.4 µM]; D2 agonist: -3.7; gsp antag: -11%; Sfp inh: 12%; ClpP mod: x
